Screening data as filed in PubChem BioAssay.
miR-21 FLuc = qHTS Assay for Modulators of miRNAs and/orActivators of miR-21; HeLa miR-21 FLuc reporter, luciferase, 48 h; Potency, µM (series often up to 38.3 µM), for the others: top-dose reporter change, positive = more light; 340,000 tested, under 10 active; active = well fitted rising curve with a large enough effect; inconclusive = small, poorly fitted or top-dose-only effect; inactive = no such curve, though single readings can be large or run the other way;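 further: % of control where 0% means no effect; miR-21 action dims this reporter so a rising signal means less miR-21 action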
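HeLa cells endogenously expressing miR-21, stably carrying CMV-driven firefly luciferase with a downstream miR-21 binding site, 2000 cells/well. Titrations up to approximately 40 uM, 48 hours; luciferase luminescence read.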
GLA inh pH 4.5 = qHTS Assay for Inhibitors of Human alpha-Galactosidase at pH 4.5; AID 1467, 2008; 230,000 tested, under 10 active; purified enzyme, 4-MU-alpha-Gal fluorescence, pH 4.5; activity change, negative = inhibition, % at 105 µM; Alpha-galactosidase A (Homo sapiens), P06280; inconclusive = small, poorly fitted or top-dose-only inhibition, or a rising curve; inactive = flat fitted curve, though single readings scatter; no compound was filed as active;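 further: 0% = full activity with enzyme and -100% = basal without enzyme; dose as in the result columns while the protocol names 77 µM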
Target sequence (P06280 whole entry, looked up): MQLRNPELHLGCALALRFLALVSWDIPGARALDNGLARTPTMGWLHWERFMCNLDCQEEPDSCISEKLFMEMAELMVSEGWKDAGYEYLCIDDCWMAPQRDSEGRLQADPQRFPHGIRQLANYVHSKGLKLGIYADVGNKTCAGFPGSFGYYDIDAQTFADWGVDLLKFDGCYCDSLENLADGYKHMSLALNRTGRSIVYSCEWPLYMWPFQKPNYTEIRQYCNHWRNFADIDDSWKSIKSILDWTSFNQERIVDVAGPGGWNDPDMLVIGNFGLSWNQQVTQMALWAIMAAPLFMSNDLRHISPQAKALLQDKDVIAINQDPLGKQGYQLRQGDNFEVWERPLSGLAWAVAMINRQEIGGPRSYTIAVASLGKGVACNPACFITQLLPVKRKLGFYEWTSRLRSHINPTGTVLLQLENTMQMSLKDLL
Rango-impB inh = qHTS Assay for Inhibitors of Rango (Ran-regulated importin-beta cargo) - Importin beta complex formation | 0.031% of 340,000 active | Potency, µM (series often up to 92.2 µM), without a hit: top-dose inhibition of complex formation | Importin subunit beta-1 (Homo sapiens), Q14974 | AID 540263, 2011 | Rango CFP/YFP FRET sensor + importin beta, 45 min; active = rising FRET ratio curve, often small or poorly fitted; inconclusive = mostly compound fluorescence or quenching in the first reads; inactive = flat curves in all reads;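 further: potency means the concentration at half of the fitted maximal effect; 0% = DMSO wells and 100% = buffer wells lacking importin beta; nearly all actives have a fitted effect of over 15% in size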
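Inhibition scored from the CFP 486 nm/YFP 530 nm FRET ratio 45 min after adding 0.125 microM importin beta to 50 nM Rango biosensor preincubated 5 min with compound (room temperature, PBS with DTT, Tween-20, BSA). No-importin wells as positive control.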
Rango dissoc inh = qHTS Assay for Inhibitors of RanGTP induced Rango (Ran-regulated importin-beta cargo) - Importin beta complex dissociation; 0.071% of 340,000 active; Biochemical FRET Rango-importin beta, RanGTP-induced dissociation; Potency, µM (top dose mostly 46.1 µM), for inactives: at the top dose activity change, negative = inhibition; AID 540253, 2011; active means falling FRET ratio curve, often poorly fitted, with flat reads before Ran was added; inconclusive means other falling curves, or compound fluorescence or quenching; inactive means flat or rising ratio curve;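 further: potency means the concentration at half of the fitted maximal effect; % of control where 0% means no effect; nearly all actives have a fitted effect of over 45% in size; -100% = wells without RanGTP and RCC1; the record marks most hits as doubtful in a second field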
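Compounds preincubate 5 min with complex of recombinant Rango and importin beta in PBS with 1 mM DTT. Ran (0.6 uM) loaded with 2 mM GTP plus 0.2 uM RCC1 starts dissociation; FRET is recorded 45 min later.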
* = called active by the depositor; u = inconclusive; x = not tested or not shown; & = joins results of further samples. Not all compounds are listed; the hit share may differ from the screen's.

SMILES	miR-21 FLuc	GLA inh pH 4.5	Rango-impB inh	Rango dissoc inh
COc1ccc(N(CC(=O)Nc2cc(OC)cc(OC)c2)S(=O)(=O)c2c(C)n[nH]c2C)cc1	2%	x	4.9%	-8%
O=C(CNC(=O)N1CC(=O)Nc2ccccc21)Nc1ccc(F)c(Cl)c1	-2%	x	0.3%	9%
Cc1cc(SCc2ccccc2C)nc(=O)[nH]1	-10%	x	0.4%	0%
CCOCCCN(C(=O)c1snc(C(N)=O)c1N)C(C(=O)NCCC(C)C)c1ccc(Cl)cc1 (centres undefined)	13%	x	-0.3%	-14%
CC(C)C1Oc2cc3oc(=O)ccc3cc2C1=O (centres undefined)	-7%	6	7.5%	-2%
O=C1OCCN1C(=O)[C@H]1[C@H](c2ccc(F)cc2)C(c2ccccc2)=NN1c1ccccc1	x	-4	u	-25%
CSc1ncccc1C(=O)NCc1nnc2ccccn12	x	x	-0.3%	-6%
Cc1cc(C)c(C)c(S(=O)(=O)ON2C(=O)c3ccccc3C2=O)c1C	-10%	1	-0.4%	21%

Complete entries, looked up by structure. Values in the order: miR-21 FLuc, GLA inh pH 4.5, Rango-impB inh, Rango dissoc inh
O=C1OCCN1C(=O)[C@H]1[C@H](c2ccc(F)cc2)C(c2ccccc2)=NN1c1ccccc1 is entered as x, -4, u, -25%
Cc1cc(C)c(C)c(S(=O)(=O)ON2C(=O)c3ccccc3C2=O)c1C is entered as -10%, 1, -0.4%, 21%

Remaining list, next part:
SMILES	miR-21 FLuc	GLA inh pH 4.5	Rango-impB inh	Rango dissoc inh
O=C(O)/C(=C\c1ccco1)NC(=O)c1ccccc1	-3%	4	-0.9%	5%
Fc1ccccc1-c1n[nH]c(=S)n1Cc1ccccc1	0%	x	3.2%	1%
O=C(CN(Cc1ccco1)C(=O)c1cccc(Cl)c1)Nc1c(Cl)cc(Cl)cc1Cl	0%	4	0.2%	10%
O=Cc1cc(N=Nc2cccc(C(=O)O)c2)ccc1O	-25%	-29	-1.1%	u
O=C(c1sc2cccc(F)c2c1Cl)N1CCN(c2ncccn2)CC1	-13%	-4	0.2%	-10%
COC(=O)Cn1cnc(C(=O)Nc2ccc(C)c(C)c2)n1	x	x	-3.2%	u
CC(N=Cc1c(O)c2ccccc2oc1=O)C(=O)O (centres undefined)	10%	0	0.5%	-16%
COc1ccc(N2CCN(C(=O)CNC(=O)c3ccccc3Cl)CC2)cc1	6%	x	2.7%	1%
C1CCc2c(c(N3CCOCC3)nc3sc4c(N5CCOCC5)nnnc4c23)C1	x	x	2.4%	4%
CNC(=O)CSc1nc2cccnc2n1-c1ccc(F)cc1	-1%	x	-4.1%	0%
COc1cc(NC(=O)NCCN2CCN(c3ccccc3)CC2)cc(OC)c1OC	2%&0%	x	0.2%	-17%
Cc1cn(CC(=O)N[C@H](C)c2cccc3ccccc23)c(=O)[nH]c1=O	x	x	-1.6%	-1%
O=C(c1ccc([N+](=O)[O-])o1)N1CCc2ccccc21	-1%	x	0.0%	-2%
Cc1ccc(C)n1-c1nc(=S)[nH][nH]1	-2%	-7	-4.4%	1%
Cc1ccc(CNC(=O)C2(S(=O)(=O)c3ccc(C)cc3)CC2)cc1	1%	x	-1.2%	16%
O=C1CS/C(=C\[N+](=O)[O-])N1c1ccc(OC(F)(F)F)cc1	-2%	-1	-0.5%	-10%
O=C(Cn1cc(C(=O)C2CC2)c2ccccc21)Nc1ccccc1Cl	-1%	x	0.3%	21%
COc1cc(-c2noc(C)c2C(=O)NCc2ccc(C)o2)cc(OC)c1OC	x	x	u	-11%
Cc1ccc(-c2nnc(SCc3ccc(C#N)cc3)n2Cc2ccco2)cc1	7%	-2	-0.9%	-6%
COc1c(/C=N/NC(=O)c2ccccc2O)c(CCN(C)C(C)=O)cc2c1OCO2	-5%	3	-4.5%	12%
CN(C)CCNC(=O)c1c(CSc2ccccc2)noc1C(=O)NCc1ccccc1	0%	-13	3.0%	1%
COc1ccc(OC)c(NC(=S)N2CCN(Cc3ccccc3)CC2)c1	-1%	-1	-1.5%	9%
CCCNC(=O)c1cc(-c2ccc(OC)cc2)on1	-61%	11	6.8%	-4%
COc1cc(/C=C2\C(=O)ON=C2c2ccccc2)cc(Cl)c1O	2%	-25	10%	-11%
Cc1cc(C)nc(SCC(=O)NN=C2CCCC2)n1	-10%	4	-1.6%	1%
NCC[C@H](O)C(=O)N[C@@H]1C[C@H](N)[C@@H](O[C@H]2O[C@H](CN)[C@@H](O)[C@H](O)[C@H]2O)[C@H](O)[C@H]1O[C@H]1O[C@H](CO)[C@@H](O)[C@H](N)[C@H]1O	0%	1	0.2%	6%
NS(=O)(=O)c1ccc(CCNC(=O)C2CCCN(S(=O)(=O)c3cccnc3)C2)cc1 (centres undefined)	-2%	-10	2.1%	8%
Cc1nnc(Sc2nc3c(c(=O)n(C)c(=O)n3C)n2Cc2ccccc2Cl)s1	x	x	1.0%	29%
C=CCNC(=O)C(=O)NCC(c1ccc2c(c1)OCO2)N1CCOCC1 (centres undefined)	1%	x	1.3%	7%
O=C1CC(N2CCN(c3ccccn3)CC2)C(=O)N1c1ccc(F)cc1 (centres undefined)	-6%	2	-1.3%	u
Cn1c(=O)oc2cc(S(=O)(=O)N3CCN(c4ccccc4F)CC3)ccc21	-2%	x	-1.8%	-25%
CCC1CCCCN1C(=O)c1ccccc1OC1CCN(S(C)(=O)=O)CC1 (centres undefined)	0%	4	1.4%	-1%
COc1cccc(C2=CC(=O)CC(C)(C)C2)c1OC	x	x	-1.3%	1%
CCCOc1cccc(C(=O)NCCNC(=O)c2ccccn2)c1	2%	x	-1.2%	7%
CCCSc1ccc([C@H]2N[C@@](C)(C(=O)OC)[C@H]3C(=O)N(CC)C(=O)[C@@H]23)cc1	x	x	-0.6%	-17%
CC(C)n1c(C(F)(F)F)nc2cc(C(=O)N3CCCCC3)ccc21	4%	5	-1.5%	-18%
Cc1ccnc(NS(=O)(=O)c2ccc(CC(C)C)cc2)c1	-4%	10	1.9%	-5%
O=C(NCCc1ccc(Cl)cc1)C1CCC(=O)N1C1CCCC1 (centres undefined)	-13%	-11	-0.8%	-7%
CCN(CC)CCOc1ccccc1OC	-1%	x	-1.4%	-2%
CC(C)Cn1c(N)c(C(=O)CSc2nccn2C)c(=O)n(C)c1=O	x	x	-3.6%	2%
Cc1cc(NC(=O)c2cccs2)ccc1NC(=O)Cc1ccccc1	-11%	-5	-4.7%	6%
Cc1ccc(CSc2nnc(-c3cccnc3)o2)cc1	-26%	7	-1.5%	0%
COc1ccc(OC)c(CN2CCN(C(=O)CNC(=O)c3ccccc3F)CC2)c1	x	x	-3.0%	0%
CCN(CC(=O)NCc1ccc(F)cc1)C(=O)COc1ccc(C)c(C)c1	-16%	11	-3.3%	0%
CCOC(=O)C1CCN(C(=O)CCNC(=O)c2ccccc2OC)CC1	x	x	-0.9%	0%
C=CCOc1ccc(C2=NO[C@@H]3[C@@H]4C[C@@H]([C@H]5C(=O)N(C)C(=O)[C@@H]45)[C@H]23)cc1	13%	-6	-3.5%	11%
Cc1ccc(NC(=O)COC(=O)c2ccc3c(c2)OCO3)c(C)c1	0%	-5	0.3%	2%
O=C(CCNC(=O)Cn1ccc2ccccc2c1=O)NCCN1CCN(c2cccc(Cl)c2)CC1	-2%	5	0.0%	3%
NC(=O)NC1NC(=O)NC1=O (centres undefined)	-11%	2&6	2.0%	-1%
Cc1cc(C)nc(N2CCC(C(=O)NNC(=O)c3ccccc3)CC2)n1	-6%	x	0.7%	2%
CCOc1cc2c(C#N)c(N3CCCCC3)nc(N)c2c(N)n1	0%	6	u	-18%
CCn1c(SCC(=O)NCc2ccccc2)nnc1-c1ccccc1O	-1%	0	0.2%	-12%
CCCCCCC1CCC(c2nc(-c3ccncc3)no2)CC1 (centres undefined)	-3%	0	4.4%	3%
CCN(CC)CCn1cnc2c1c(=O)n(CCOC(=O)c1cc(OC)c(OC)c(OC)c1)c(=O)n2C	0%	0	-1.9%	4%
CCN(CC)c1ccc(N=C2C(=O)Nc3ccccc32)cc1	u	x	0.0%	-8%
CC1(C)NC(=O)N(CC(=O)OCC(=O)Nc2cc(S(=O)(=O)N3CCCCCC3)ccc2Cl)C1=O	1%	5	0.0%	-7%

Further results:
SMILES	miR-21 FLuc	GLA inh pH 4.5	Rango-impB inh	Rango dissoc inh
COC(=O)c1ccc(CN2C(=O)c3ccccc3C2=O)cc1	-2%	x	-0.6%	-1%
CC1=CC(=Nc2c(C)n(C)n(-c3ccccc3)c2=O)C=CC1=O	4%	-1	x	x
CCC(Oc1ccccc1)C(=O)Nc1ccccc1C(=O)N1CCN(C)CC1 (centres undefined)	7%	x	0.8%	6%
CCc1ccc(NS(=O)(=O)c2c(C)nc3sc(CC)nn3c2=O)cc1	5%&9%	x	-0.1%	13%
CCC(=O)NNc1nc2c(C)c(C)ccc2s1	-17%	0	6.4%	-21%
Nc1ccc(S(=O)(=O)Nc2cc(Cl)c(N)c(Cl)c2)cc1	x	x	0.1%	9%
CCOP(=O)(OCC)C(Nc1cc(Cl)cc(Cl)c1)c1cccc(O)c1 (centres undefined)	20%	-1	-0.9%	-2%
COc1ccc(C2c3[nH]c4ccccc4c3CCN2C(=O)c2cc3ncccn3n2)c(F)c1 (centres undefined)	12%	-11	-2.2%	1%
C[C@@]12CCC3[C@@](CCC4[C@@]3(C)CCC[C@@]4(C)C(=O)NC3CCCCC3)(CC1=O)C2 (some centres undefined)	x	x	-0.5%	2%
CCCCOC(=O)c1ccc(-c2ccc(/C=N/NC(=S)NCC)o2)cc1	-11%	1	-0.5%	-1%
CC(=O)c1cccc(N=Cc2c(O)ccc3ccccc23)c1	1%	x	u	-12%
COc1ccc(Oc2cc(C)c3ccccc3n2)cc1	-42%	-9	u	-8%
COc1ccccc1N(C)S(=O)(=O)c1ccc(C(=O)OCC(=O)c2c[nH]c3ccccc23)cc1	-2%	12	-0.8%	7%
Cc1cnc(CN2CCc3c([nH]c4ccccc34)C2C2CCCCC2)[nH]1 (centres undefined)	0%	2	u	-16%
O=C1c2ccccc2C(=O)N1CCCc1nc2ccccc2c(=O)n1Cc1ccco1	-1%	-6	-0.3%	-13%
CCCCNc1c(-c2ccc(SC3CCCCC3)cc2)nc2ccccn12	x	x	u	u
O=C(CNC(=O)COc1ccccc1)NCc1cccnc1	-1%	x	-3.3%	-4%
O=C1NCC(c2ccccc2)C1C(=O)N/N=C\c1ccc(-c2cccc(Cl)c2Cl)o1 (centres undefined)	-1%	-9	u	-3%
COC(=O)c1ccc(COC(=O)CNC(=O)CNC(=O)c2ccc(C)cc2)cc1	1%	-4	-7.2%	-2%
Oc1ccccc1CNc1ccc(Br)cn1	-17%	6	2.7%	1%
O=S(=O)(c1cccc2nsnc12)N1CCN(c2ncccn2)CC1	-8%	-1	0.0%	0%
CC(C)(C)NC(=O)c1ccc(COc2ccccc2Br)o1	-2%	-2	-3.7%	15%
CC1=C(C/C=C(\C)CCC[C@H](C)CCC[C@H](C)CCCC(C)C)C(=O)c2ccccc2C1=O	x	x	-0.2%	-5%
CSc1ccc(-c2nc(O)c3cnccn23)cc1	0%	-2	1.8%	-6%
COc1ccc(NC(=O)c2ccc(NCC3CCCO3)c([N+](=O)[O-])c2)cc1 (centres undefined)	-21%	1	1.9%	-1%
O=C(Cc1cn2ccsc2n1)Nc1ccccc1Oc1ccccc1	-9%	3	0.0%	2%
Nn1c(SCC(=O)Nc2ccc(OC(F)F)cc2)nnc(Cc2ccccc2)c1=O	x	x	-0.3%	-5%
